Screening results (PubChem)
HTT promoter inh – inhibits huntingtin promoter activity. AID 1508623. actives 0.93% (n = 48,000). HEK293 HTT promoter firefly luciferase reporter (activity 0% = vehicle and -100% = no light), 24 h. Potency, µM (titrated, usually from 57.5 µM), for the others: at the highest dose activity change, negative = inhibition, actives largely listed as inhibitors; active = well fitted inhibition curve with a large enough effect; inconclusive = small, poorly fitted or top-dose-only effect; inactive = no such curve, though single readings can be large or run the other way; also: nearly all actives have a fitted effect of over 50% in size
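HEK293 Fluc reporter, 2,500 cells/well, 24 h pre-culture; cpds up to 57.5 uM final, 24 h 37 degrees C; Dual-Glo, 10 min RT; normalized vehicle = 0%, zero RLU = -100%.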
PMP22 txn – PMP22 gene transcription modulation. S16 Pmp22-F2sN Schwann cells (luciferase reporters placed in the Pmp22 gene), FLuc/NLuc coincidence luminescence, 24 h. Potency, µM (doses to about 57.5 µM), inactives show at the top dose activity change, negative = inhibition, most hits filed as inhibitors. actives 2% (n = 43,000); active = clear falling dose curves in both reporters; inconclusive = both reporters move, but less clearly or upward; inactive = either reporter flat; the % is the NLuc reporter signal; also: % is scaled to controls: 0 for no effect and ±100 for the full control effect; some results filed as inactive show a strong effect at the top dose
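Schwann cells carrying the coincidence reporter were exposed to library compounds for 24 h at 37C, then lysed and read for FLuc and, after quenching, NLuc luminescence on a CCD imager.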
An asterisk follows results filed as active; ? = inconclusive; . = no result given; [ ] = another dose, or the depositor's remark. Potency is read from the fitted curve at half-maximal effect.

structure	HTT promoter inh	PMP22 txn
COc1ccc(C(=O)Nc2c(C(=O)c3ccc(F)cc3)oc3ccccc23)cc1	10%	10µM*
COc1ccc(N2C(=O)CSC23C(=O)N(CC(=O)NCCc2ccccc2)c2ccccc23)cc1 (centres undefined)	-4%	0%
O=C(NCCc1ccccc1)c1ccc(CS(=O)(=O)Cc2ccccc2Cl)o1	-19%	-38%
Cc1cc2oc(=O)c(CC(=O)O)c(C)c2c2occ(-c3ccccc3)c12	61%[activator]	-16%
CCN(CC)CCOc1ccc(Nc2ncc3cc(-c4c(Cl)cccc4Cl)c(=O)n(C)c3n2)cc1	?	.
CCCC(=O)Nc1nnc(SCc2cc(=O)c3cc(C)ccc3[nH]2)s1	-22%	?
Cn1c(=O)n(C/C=C/c2ccccc2)c(=O)c2c1nc1n2CCN1c1ccc(F)cc1	-5%	21%
CCCN1CCN(CCNC(=O)Nc2ccc(OC)cc2OC)CC1	-1%	-10%
COc1cccc(C(=O)NCC(c2ccc(N(C)C)cc2)N2CCc3ccccc32)c1OC (centres undefined)	1%	?
CCc1cccc(C)c1NC(=O)Cn1ccn(-c2cccc(OC)c2)c(=O)c1=O	3%	-4%
CCOC(=O)c1cc(-c2ccccc2)n(CC(=O)NCc2ccccc2)c1C	-19%	?
COC(=O)c1ccc(NC(=O)CSc2n[nH]c(-c3ccccc3)n2)cc1	0%	-11%
CCCSc1ncc(Cl)c(C(=O)Nc2sc3c(c2C(=O)OC)CCCC3)n1	-11%	0%
Cc1ccc(-n2nc(C)c3c(C)cc(=O)n(CC(=O)Nc4ccc(Br)cc4F)c32)cc1	3%	-15%
Cc1ccc(Cn2c(C)c3cnn(CC(=O)O)c(=O)c3c2C)cc1	-18%	5%
COc1ccccc1NC(=O)CSC1=Nc2ccccc2C2=NC(CC(=O)NCCc3ccccc3)C(=O)N12 (centres undefined)	0%	-13%
CCN1CCc2nc3sc(C(=O)Nc4ccccc4OC(F)(F)F)c(N)c3cc2C1	-7%	?
COc1ccc(Cn2c(=O)c3ccccc3n3c(-c4cccc(OC)c4OC)nnc23)cc1	?	-23%
CCOc1ccc(-c2nnc(SCC(=O)NCc3ccccc3Cl)o2)cc1	-9%	6%
O=C(Nc1ccc(F)cc1Cl)n1ncc2cc(Cl)ccc21	0%	2%
COc1ccc(NC(=O)c2sc3nc4c(cc3c2N)CN(Cc2ccccc2)CC4)c(OC)c1	?	?
CCC(C(=O)Nc1cc(Cl)ccc1OC)n1nc(-c2ccccc2)ccc1=O (centres undefined)	?	?
CCOCCc1nn2c(=O)cc(COC(=O)c3ccc(NC(=O)c4ccc(F)cc4)cc3)nc2s1	-20%	1%
O=C(Nc1ccc(F)cc1F)c1ccc(-c2ccccc2)s1	17%	9%
O=c1cc(-c2ccccc2)nc(SCc2nc(-c3ccc(C(F)(F)F)cc3)no2)[nH]1	1%	-42%

Part of the list above, with two lines to a compound:
Values in the order – HTT promoter inh, PMP22 txn
CCN(CC)CCOc1ccc(Nc2ncc3cc(-c4c(Cl)cccc4Cl)c(=O)n(C)c3n2)cc1
→ ?, .
CCCC(=O)Nc1nnc(SCc2cc(=O)c3cc(C)ccc3[nH]2)s1
→ -22%, ?
Cn1c(=O)n(C/C=C/c2ccccc2)c(=O)c2c1nc1n2CCN1c1ccc(F)cc1
→ -5%, 21%
CCCN1CCN(CCNC(=O)Nc2ccc(OC)cc2OC)CC1
→ -1%, -10%
COc1cccc(C(=O)NCC(c2ccc(N(C)C)cc2)N2CCc3ccccc32)c1OC (centres undefined)
→ 1%, ?
CCc1cccc(C)c1NC(=O)Cn1ccn(-c2cccc(OC)c2)c(=O)c1=O
→ 3%, -4%

(list continues)
structure	HTT promoter inh	PMP22 txn
O=C(Cn1c(=O)oc2cc(Cl)ccc21)Nc1cccc(C(F)(F)F)c1	?	?
COc1cc2c(cc1OC)C(COc1ccccc1OC)N(C(=O)COc1ccc(Cl)cc1)CC2 (centres undefined)	?	?
CCn1cc2nc(SCc3ccccc3Cl)n(CCc3ccccc3)c(=O)c2n1	?	?
CCOC(=O)C1CCN(C(=O)c2cnn(-c3ccc(F)cc3)c2-n2cccc2)CC1	?	-37%
O=C(Cc1ccccc1)Nc1nnc2n1CCS2	2%	?
O=C(NCCc1ccccc1)c1c[nH]c2ccc(S(=O)(=O)Nc3ccc(F)cc3F)cc2c1=O	-13%	-34%
CCOc1ccccc1C(=O)Nc1ccc(S(=O)(=O)Nc2onc(C)c2C)cc1	-8%	-40%
COc1ccc(/C=C(\C#N)c2nc(-c3ccc(Cl)c(Cl)c3)cs2)cc1OC	-3%	22%
Cc1ccc(NC(=O)CSc2nc(-c3cccs3)cc(C(F)(F)F)n2)cc1C	?	?
CCOC(=O)c1ccccc1NC(=O)Nc1cc2c(cc1N1CCCCC1)n(C)c(=O)n2C	-6%	-2%
O=C(Cn1c(=O)n(CCCS(=O)(=O)C2CCCCC2)c(=O)c2ccccc21)Nc1ccccc1F	-6%	3%
O=C(C1CCC(CNS(=O)(=O)c2ccc(Br)s2)CC1)N1CCN(c2ccccc2Cl)CC1 (centres undefined)	-21%	-19%
CCOc1ccc(-c2cc(CCCC(=O)NCCc3ccc(OCC)c(OCC)c3)no2)cc1	?	-11%
Clc1cccc(Nc2ncnc3c2nc2n3CCCCC2)c1	6%	?
COc1cccc(CNC(=O)c2cc3c(s2)-c2c(C)cccc2OC3)c1	?	-19%
Cc1ccc2nc(-c3cc(NC(=O)COc4ccc(C)c(C)c4)ccc3Cl)oc2c1	7%	9%
Cc1ccc(NC(=O)Cn2nnc(C(=O)NCCc3ccccc3)c2N)cc1Cl	4%	0%
COc1ccc(N(Cc2cccs2)C(=O)Nc2ccccc2)cc1	-13%	19%
Cc1ccc(C(=O)Nc2ccc(C(=O)OCc3cc(=O)n4c5c(sc4n3)CCCC5)cc2)cc1	-19%	?
Cc1cc(C(C)Nc2ccccc2)c2nc(N3CCOCC3)cc(=O)n2c1 (centres undefined)	-17%	.
CCc1cccc(C)c1NC(=O)c1cc(S(=O)(=O)N2CCC3(CC2)OCCO3)ccc1F	-4%	-36%
CCC(C(=O)N(C)Cc1ccccc1)n1nc(C)c2sc3ccccc3c2c1=O (centres undefined)	-24%	10%
CCOC(=O)c1cc(-c2ccccc2)n(-c2cccc(C(=O)Nc3cc(OC)cc(OC)c3)c2)c1C	?	-13%
Cc1ccc(OCC(=O)Nc2cc(-c3cccc(C)c3)nn2-c2ccccc2)cc1	30%[activator]	-21%
COC(=O)c1c(NC(=O)CCCOc2cccc(C)c2)sc2c1C(C(=O)OC)CC2 (centres undefined)	?	-13%
O=C(CCS(=O)(=O)c1cc2c3c(c1)CCN3C(=O)CC2)NCc1ccc(F)cc1	-22%	?
COc1ccc(C(=O)Nc2ccc3nc(N4CCC(C)CC4)cc(C)c3c2)cc1	12%	-7%
COc1ccc(-c2nnc(SCC(=O)NCc3ccccc3)nc2-c2ccc(OC)c(OC)c2)cc1OC	?	7.3µM*
O=S(=O)(c1ccc(-c2cnc(C3CC3)o2)cc1)N1CCN(c2cccc(Cl)c2)CC1	10%	-13%
COc1ccc(N(CC(C)C)S(=O)(=O)c2nnc(NC(=O)c3ccco3)s2)cc1	?	-35%
Cc1ccc(S(=O)(=O)Nc2cc3c(cc2C)n(C)c(=O)c(=O)n3C)cc1	-10%	?
COc1ccc(OC)c(NC(=O)c2cccn2-c2nnc(N3CCCCC3)s2)c1	-3%	-4%
COc1ccccc1Nc1nc2c(S(=O)(=O)c3ccc(C(C)C)cc3)nnn2c2ccsc12	-3%	-16%
Cc1ccc(C(=O)c2cn(Cc3cccc(Cl)c3)c3nc(C)ccc3c2=O)cc1	-23%	?
COC(=O)C1=C(C)NC(C)=C(C(=O)OCCN(C)Cc2ccccc2)C1c1cccc([N+](=O)[O-])c1 (centres undefined)	?	.
CCc1cccc(NC(=O)CN2C(=O)COc3ccc(S(=O)(=O)Nc4ccccc4)cc32)c1	-28%	-18%
COc1cccc(CNC(=O)c2ccc(NC(=O)N3CCCCc4ccccc43)cc2)c1	-8%	1%
COc1ccccc1NC(=O)CSc1oc(-c2ccco2)nc1S(=O)(=O)c1ccc(C)cc1	-26%	33%
COc1ccccc1NC(=O)C1=C(C)Nc2ncnn2C1c1ccc[nH]1 (centres undefined)	-18%	-22%
Cc1ccccc1-c1nc(NC(=O)CSc2ncnc3sc4c(c23)CCCC4)ns1	-7%	-22%
COc1cc(OC)cc(-n2c(=O)c3sccc3n(Cc3cc(=O)n4c(C)cccc4n3)c2=O)c1	-7%	-26%
CC(=O)N1CCCc2cc(S(=O)(=O)N3CCCC(C(=O)NCc4ccc(Cl)cc4)C3)ccc21 (centres undefined)	?	-50%
CCOc1ccc(NC(=O)C2CC(=O)NC(=Nc3ccc(Cl)c(Cl)c3)S2)cc1 (centres undefined)	-12%	16%
O=C(NCC(c1ccco1)S(=O)(=O)c1cccs1)c1ccc(F)cc1 (centres undefined)	17%	-8%
c1ccc(-n2ncc3c(NC4CCCC4)ncnc32)cc1	28%	-10%
CCN(CC)S(=O)(=O)c1ccc2c(c1)nc(CN(C)C(=O)Nc1cccc(Cl)c1)n2C	-18%	0%
CC(=O)c1c(C)oc2ccc(N(C(=O)Oc3ccccc3)S(=O)(=O)c3ccccc3)cc12	-31%	?
COc1ccc(C)cc1NC(=O)Nc1cccc(-c2noc(C)n2)c1	-17%	?
COc1cccc(CNC(=O)c2nn(-c3ccccc3Cl)nc2CO)c1	?	-19%
COC(=O)c1c(NC(=O)c2ccc(OC)cc2OC)sc2c1CCCCC2	-6%[11.5 µM]	-99%

Following part:
structure	HTT promoter inh	PMP22 txn
COC(=O)c1ccccc1NC(=O)c1ccc2c(Cl)c3c(nc2c1)CCCC3	42%[activator]	16%
NC(=O)CSc1ncc2c(n1)-c1ccccc1N(Cc1ccc(F)cc1)S2(=O)=O	-15%	-12%
Cc1ccc(C)c(CN2C(=O)c3ccccc3S(=O)c3ccc(C(=O)N4CCN(c5ccccc5F)CC4)cc32)c1 (centres undefined)	-16%	?
Cc1cc(F)ccc1NC(=O)C1CCC(CNS(=O)(=O)c2ccc3c(c2)CCCC(=O)N3)CC1 (centres undefined)	?	?
COc1ccc(-c2cc(C(=O)NCCc3ccc(OC)c(OC)c3)c3c(-c4ccc(F)cc4)[nH]nc3n2)cc1	-27%	-14%
O=C(Nc1ccc(F)c(Cl)c1)C1CCN(c2ncccn2)CC1	-13%	-4%
COc1ccc(NC(=O)c2sc3nc(C)c(C(=O)Nc4ccc(C)cc4C)c(-c4ccc(Cl)cc4)c3c2N)cc1	-22%	12%
COc1ccc(C)cc1NS(=O)(=O)c1ccc2[nH]c(=O)c(=O)[nH]c2c1	-8%	15%
CCOc1ccc(NC(=O)Cn2cc(C(=O)c3ccc(C)c(C)c3)c(=O)c3cc(F)ccc32)cc1	-6%	17%
Cc1c(Cl)cccc1-n1ncc(C(=O)N2CCC(C)CC2)c1C1CCN(C(=O)OC(C)(C)C)CC1	-8%	?
Cc1ccc(Cn2c(=O)c3cccnc3n(Cc3ccc(C)cc3)c2=O)cc1	-5%	-4%
COC(=O)Cc1c(C)nc2nc(NCc3ccc(Br)cc3)[nH]n2c1=O	-20%	4%
Cc1ccc(NS(=O)(=O)c2ccc3nc(-c4ccccc4)[nH]c3c2)cc1Cl	?	-11%
O=S(=O)(c1ccc(C2CCCCC2)cc1)N1CCN(c2cc(Cl)ccc2Cl)CC1	-1%	-12%
O=C1CC(c2ccc(F)cc2)c2c(c3ccccc3[nH]c2=O)O1 (centres undefined)	-5%	-12%
COC(=O)c1ccccc1NC(=O)CCCn1nc(C)c2c(C)n(-c3ccccc3)nc2c1=O	5%	-5%
COCCCNC(=O)c1ccc(-n2c(-c3ccccc3)cc3c2CCC(C)C3)cc1 (centres undefined)	?	18µM*
CCc1ccc2c(c1)NC(c1cccnc1)=NC(c1ccc(C(C)(C)C)cc1)=N2	?	?
Cc1ccccc1C(=O)NC1(C(F)(F)F)N=C(c2ccccc2)N(C2CCCCC2)C1=O (centres undefined)	-12%	-7%
CCN(CC)CCCNC(=O)c1ccc2c(=O)n(CCc3ccccc3)c(=O)[nH]c2c1	8%	?
COc1ccc2c(c1)CC(NC(=O)Nc1ccc(Br)c(C)c1)CO2 (centres undefined)	-5%	-11%
CC(C)OC(=O)CCCC=CC[C@@H]1[C@H](C=C[C@@H](O)COc2cccc(C(F)(F)F)c2)[C@H](O)C[C@@H]1O	?	.
Cc1ccc(-n2ncc3c(Nc4ccc5c(c4)OCCO5)ncnc32)cc1Cl	-6%	1%
O=C(Nc1ccc(C(=O)N2CCN(c3ccc(F)cc3)CC2)cc1)c1nsc2ccccc12	?	-32%
COc1ccc(OC)c(NC(=O)Cn2c(=O)n(Cc3nc(C)no3)c(=O)c3ccccc32)c1	-9%	0%
